Screens deposited in PubChem by several laboratories.
RecA splice inh = inhibitors of M. tuberculosis RecA intein splicing. P9WHJ3. cell-free RecA intein splicing, fluorescence. inhibition, %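 (about 9 µM by stock and volumes)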. hit rate 0.75% among 290,000; in the data active means inhibition above about 30%; inconclusive means no clear call, values can overlap the other calls;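 further: 0% = vehicle wells and 100% = reference inhibitor control wells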
Target sequence (P9WHJ3 whole entry, looked up, canonical isoform): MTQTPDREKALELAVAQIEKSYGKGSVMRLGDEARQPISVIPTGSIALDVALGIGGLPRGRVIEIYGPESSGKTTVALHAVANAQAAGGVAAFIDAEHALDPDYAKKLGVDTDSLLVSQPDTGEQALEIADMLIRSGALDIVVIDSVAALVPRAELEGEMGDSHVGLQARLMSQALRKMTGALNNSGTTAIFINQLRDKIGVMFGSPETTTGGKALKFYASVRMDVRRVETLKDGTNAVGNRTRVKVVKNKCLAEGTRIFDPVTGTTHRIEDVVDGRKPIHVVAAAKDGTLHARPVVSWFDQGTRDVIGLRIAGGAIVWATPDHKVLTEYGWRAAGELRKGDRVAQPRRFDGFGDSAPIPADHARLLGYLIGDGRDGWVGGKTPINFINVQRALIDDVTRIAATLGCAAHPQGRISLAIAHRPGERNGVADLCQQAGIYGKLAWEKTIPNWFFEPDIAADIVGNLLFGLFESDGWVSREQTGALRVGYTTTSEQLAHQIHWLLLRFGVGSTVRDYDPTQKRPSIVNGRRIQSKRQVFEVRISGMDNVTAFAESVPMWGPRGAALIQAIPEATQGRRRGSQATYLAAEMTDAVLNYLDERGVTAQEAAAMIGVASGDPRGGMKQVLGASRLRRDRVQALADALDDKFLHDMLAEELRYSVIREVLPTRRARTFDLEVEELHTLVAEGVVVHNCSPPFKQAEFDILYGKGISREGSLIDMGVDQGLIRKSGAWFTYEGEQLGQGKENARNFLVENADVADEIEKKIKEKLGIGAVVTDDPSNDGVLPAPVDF
Mtb growth = M. tuberculosis H37Rv growth inhibitors, H37Rv strain (AID 1626); hit rate 0.95% among 220,000; M. tuberculosis H37Rv growth inhibition; higher % means a stronger effect; inhibition, % at 10 µM, or IC50 in µM where a hit was titrated;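 active means confirmed in a dose series; inconclusive means inhibition above 80% but not taken into the dose series; inactive means below 80% or under 30% at every dose of the series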;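 further: bacteria incubated seven days before Alamar blue readout; 0% = bacteria only wells and 100% = bacteria with antibiotic wells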
Mtb betalactam = beta-lactam sensitization of Mtb H37Rv; M. tuberculosis H37Rv growth with meropenem, percent inhibition; hits of this screen are not shown here; inhibition, % at 25 µM; hit rate 0.27% among 330,000; AID 434955;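 active means about 74% or more and at least 40 points above the plate without the antibiotic, then above 30% in a dose series; inconclusive means first-round hits that could not be retested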;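 further: growth measured after seven days incubation then overnight dye step; 0% = bacteria only wells and 100% = bacteria with antibiotic; twin plates without the antibiotic show which effects depend on it; some results filed as inactive read as strong as hits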
YopH PTP inh = blocks Yersinia enterocolitica YopH tyrosine phosphatase; fluorescence Ex485/Em525; inhibition, %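 (about 10 µM by stock and volumes)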; hit rate 0.16% among 140,000; AID 898;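 active means inhibition of 50% or more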;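 further: controls were vehicle for no effect and minimum signal wells for full effect; inactives centre near -20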
Arbovirus inh = arbovirus infection inhibition; arbovirus infection cell-based antiviral screen; inhibition, % at 10 µM; hit rate 0.37% among 200,000;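 active means inhibition from about 30%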;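 further: bluetongue infection of BSR cells; cell survival read as ATP light after 72 h; 0% = infected wells without compound and 100% = uninfected wells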
The depositor's hits bear a star; ? = inconclusive; . = no result given. The list is partial; rates above refer to the full screens.

SMILES,RecA splice inh,Mtb growth,Mtb betalactam,YopH PTP inh,Arbovirus inh
COc1ccccc1C1CC(=O)NC(C)=C1C(=O)OCC1CCCO1 (stereo unspecified),0.4,-0.6%,-12.2,-17.0,1.9
CC(C)(C)OC(=O)N1CCC(C(=O)N[C@H](C(=O)O)c2ccccc2)(c2ccccc2)CC1,0.6,.,-2.1,.,.
CCCn1nc(C(=O)OCC(=O)Nc2cccc(OC)c2)c2ccccc2c1=O,0.9,3.9%,-1.2,.,0.5
C/C=C(\C)CN1CCCC(N(C)CCc2ccc(OC)c(OC)c2)C1 (stereo unspecified),0.5,.,-2.6,.,.
Cc1ccc2nc(SCC(=O)NC3CCCC3)nc(=O)n2c1,-2.2,.,-12.0,.,.
Cc1ccc(S(=O)(=O)Cc2ccc(C(=O)N3CCN(c4cccc(C)c4C)CC3)o2)cc1,8.6,.,5.0,.,.
COCCN1C(=O)C(=O)/C(=C(/O)c2ccc(OC(C)C)cc2)C1c1cccnc1 (stereo unspecified),-0.7,-12.6%,-2.2,-54.9,4.8
CCOc1ccc(/C(C)=N/NC(=O)c2nnn(-c3nonc3N)c2-c2cccs2)cc1,1.8,.,7.3,.,.
CCOc1ccc(C2c3c(oc4ccccc4c3=O)C(=O)N2CCCN2CCOCC2)cc1 (stereo unspecified),1.3,-4.5%,-7.6,-43.1,20.9
COC(=O)c1sccc1N/N=C/c1cccc(Oc2ccccc2)c1,2.8,17.2%,8.3,-31.7,4.6
CCCN(CCC)c1nc(N)c(C#N)c(CC#N)c1C#N,2.6,-1.7%,7.6,4.0,-9.4
COc1ccc(Cl)cc1S(=O)(=O)N1CCN=C1c1ccccc1,-4.4,.,7.9,.,.
N#CC1=C(N)NC(SCC(=O)c2ccc(Cl)cc2)=C(C#N)C12CCCC2,11.3,21.4%,54.4,-12.0,-11.8
C=C1CCN([C@@H](Cc2ccccc2)C(=O)NCc2ccc(Cl)c(Cl)c2)S(=O)(=O)c2ccccc21,4.8,8.2%,-8.1,.,.
CC1(C)Cc2cccc(OCC(=O)N3CCN(S(=O)(=O)c4ccccc4)CC3)c2O1,-4.6,-15.0%,-1.9,-47.1,3.3
CSc1nc2n(n1)C(c1cccc(F)c1)C(C(=O)Nc1ccc(C)cc1C)=C(C)N2 (stereo unspecified),-3.8,2.1%,-1.5,13.8,-12.2
CCCNc1nc(C)cc(-c2cc(-c3ccc(Cl)cc3)on2)n1,-1.6,-6.3%,5.8,.,.
CCOc1cc2[nH]c(=S)n(Cc3ccc(C(=O)N4CCN(C)CC4)cc3)c(=O)c2cc1OCC,-3.9,.,-2.9,.,.
CN(N)c1ccc2c(C(F)(F)F)cc(C(F)(F)F)nc2n1,-33.9,5.3%,0.5,.,-6.1
COc1cc2c(cc1OC)-c1nnnn1C(C)(C)C2,-6.2,-6.3%,-3.5,6.6,14.8

The list goes on:
SMILES,RecA splice inh,Mtb growth,Mtb betalactam,YopH PTP inh,Arbovirus inh
COc1ccc(/C=N/NC(=O)c2ccoc2C)cc1CN1CCN(c2ccc(F)cc2)CC1,-0.3,.,-0.1,.,.
Cc1c(NC(=O)/C=C/C(=O)O)cccc1[N+](=O)[O-],-0.8,-18.9%,1.9,-33.1,-2.9
O=C(O)Cc1ccc(NC(=S)Nc2cccc(Cl)c2Cl)cc1,0.6,3.9%,5.5,-2.3,7.2
Cc1ccc(S(=O)(=O)CCSc2n[nH]c(=O)n2-c2ccccc2)cc1,-1.4,-10.2%,-2.0,.,.
COC(=O)COc1cccc2c(=O)n(CC(=O)N3CCCCC3)ccc12,0.7,-6.8%,0.9,.,.
COc1ccc(NC(=O)Nc2ccc(C(=O)N3CCOCC3)cc2)cc1OC,-3.0,.,-9.0,.,.
CCN(CC)CCC(c1cc(OC)c(OC)c(OC)c1)c1c(OC)cc(OC)c2c(-c3ccccc3)cc(=O)oc12 (stereo unspecified),4.0,12.6%,5.5,.,.
Cc1cc2cc(CN(Cc3ccc4c(c3)OCO4)C(=O)c3ccco3)c(=O)[nH]c2cc1C,-1.5,4.3%,10.6,-9.3,-18.6
CCOC(=O)COc1nc(C)c(Br)c(OC)n1,-0.9,-9.2%,44.8,-35.7,5.8
COc1nc(-c2ccccc2Cl)ccc1C#N,9.8,3.6%,11.7,-39.3,-1.3
COc1cccc(NC(=O)c2sc3nc4n(c(=O)c3c2C)CCC4)c1,-5.4,.,2.0,.,.
Cc1cc(Cl)ccc1OCC(=O)OC(C)C(=O)N(C)C (stereo unspecified),0.5,.,-6.1,-48.1,1.0
COC(=O)c1[nH]c2cc(OC)c(OC)cc2c1NC(=O)Oc1ccccc1,-13.6,-3.0%,1.6,-3.3,-9.4
CC1(c2nnc(Cc3ccccc3)o2)CC(c2ccc([N+](=O)[O-])cc2)=NO1 (stereo unspecified),-0.4,1.9%,-6.2,.,.
Cc1cc([N+](=O)[O-])cnc1NC(C)c1ccccc1 (stereo unspecified),1.3,-10.7%,-7.4,-31.3,4.2
Cc1c(Cl)cccc1NC(=O)C(=O)NNS(=O)(=O)c1ccc(F)cc1,-3.4,.,7.3,.,.
CC1=CC(C)(C)N(C)C(=O)N1c1ccc(Cl)cc1,3.3,-5.2%,0.9,8.1,-2.5
CC(C)NS(=O)(=O)c1ccc(OCC(=O)Nc2ccc(F)cc2)cc1,.,8.1%,4.8,.,7.9
CC(C)(C)C1CCC(OC(=O)CN2CCCCC2)CC1 (stereo unspecified),0.6,-13.5%,-0.1,.,.
CCN(Cc1ccccc1)C(c1cccs1)c1nnnn1C1CCCCC1 (stereo unspecified),12.2,6.8%,16.4,-15.5,-17.3

Next part.
SMILES,RecA splice inh,Mtb growth,Mtb betalactam,YopH PTP inh,Arbovirus inh
COC(=O)c1c(NC(=O)CN2CCCC(C)C2)c2c(C)cccc2n1C (stereo unspecified),-1.6,1.2%,-9.1,-20.1,2.5
COc1ccc(CN2CCSCC2)c(C)c1C,-0.3,.,-6.2,.,.
CC(OC(=O)CN1C(=O)c2ccccc2C1=O)C(=O)NCc1ccccc1 (stereo unspecified),-2.6,.,-2.1,.,.
CC(=O)C1=C(C)N(Cc2ccco2)C(=O)C1(NC(=O)C1CCCCC1)C(F)(F)F (stereo unspecified),0.7,5.0%,0.3,-1.0,6.1
CCN(CC)CCCNC(=O)C(C)Sc1nc(-c2ccccc2)cc(C(F)(F)F)n1 (stereo unspecified),-10.3,-5.4%,-7.2,.,.
Cc1cnc(C(=O)OCC(=O)NC(C)CCc2ccccc2)cn1 (stereo unspecified),0.5,-0.5%,-8.3,.,2.4
COc1ccc(S(=O)(=O)N2CCCC(C(=O)NCc3ccccn3)C2)cc1 (stereo unspecified),-2.1,-2.6%,-13.0,-9.2,6.5
CC(C)CCC(=O)N1CCOC1=O,-1.0,.,0.8,.,.
CC1CN(C(NC(=O)C(C)(C)C)C(Cl)(Cl)Cl)CC(C)O1 (stereo unspecified),3.4,-6.8%,-0.7,-41.3,-0.4
Cc1ccc(N2C(=O)c3ccc(C(=O)N4CCOCC4)cc3C2=O)cc1C,1.9,-5.5%,51.5,-22.2,5.8
O=C(Nc1cc(S(=O)(=O)N2CCOCC2)ccc1O)c1ccc(NS(=O)(=O)c2ccc(Cl)s2)cc1,-3.3,-1.3%,3.2,-28.0,6.0
O=C(CSc1nc2ccccc2s1)NCCOc1ccc(Cl)cc1,1.0,-7.0%,-0.9,-29.0,6.2
c1ccc(-c2noc(-c3cccs3)n2)nc1,0.5,2.6%,2.1,-27.3,-9.4
O=C1OC(CCl)CN1Cc1c(Cl)cccc1Cl (stereo unspecified),0.8,.,-3.3,.,.
O=C(Nc1cccc(C(F)(F)F)c1)c1cc(-c2ccc(F)cc2)on1,-0.1,4.4%,6.5,4.9,-0.8
COc1ccc(OCC(O)Cn2c(=N)n(Cc3ccccc3)c3ccccc32)cc1 (stereo unspecified),5.4,2.6%,20.8,-47.5,-43.2
Cc1ccc(NC(=O)c2ccc(S(=O)(=O)N3CCOCC3)cc2)c(C)c1,1.9,.,-2.2,.,.
Cc1nn(Cc2ccccc2)c2c1C(c1cccc(Cl)c1)C(C#N)=C(N)O2 (stereo unspecified),72.9*,-1.5%,-14.8,-33.3,-5.2
NS(=O)(=O)c1ccc(NC(=O)COC(=O)c2cnc(Cl)c(Cl)c2)cc1,-1.3,22.6%,-1.2,.,.
CC(=O)c1cc2c(cc1NC(=O)c1ccc(Cl)cc1)OCCO2,-11.2,.,1.9,.,.

(cont.)
SMILES,RecA splice inh,Mtb growth,Mtb betalactam,YopH PTP inh,Arbovirus inh
Cn1nc(C(F)(F)F)cc1C(=O)NC1CCCCCC1,2.5,0.3%,-5.5,-60.9,4.3
O=C(COC(=O)c1ccc(O)cc1)Nc1ccc(Cl)cc1,3.8,6.3%,-4.0,.,-9.0
CCOc1ccc(-c2c(C(=O)N/N=C/c3ccc(C)s3)nnn2-c2nonc2N)cc1,1.6,.,-3.7,.,.
O=C(Nc1ccc2c(c1)OCCO2)c1ccc(Cl)cc1Cl,0.5,.,93.3,.,.
CS(=O)(=O)N(CC(=O)NCc1ccccn1)Cc1ccc(Cl)cc1,-1.3,-0.7%,-4.5,-0.8,0.6
O=[N+]([O-])c1ccc2nc(NS(=O)(=O)c3ccc(F)cc3)sc2c1,0.3,.,5.0,.,.
Cc1ccc([N+](=O)[O-])cc1-c1ccc(/C=N\n2nnnc2N)o1,1.6,3.4%,6.9,-20.7,-4.5
COC(=O)c1ccc(NC(=O)C(=O)NCC2CCCO2)cc1 (stereo unspecified),0.3,-5.2%,-3.5,-26.2,0.8
CC1Cc2cc(S(=O)(=O)N3CCC(C(=O)N4CCN(c5ccccc5F)CC4)CC3)ccc2N1C(=O)C1CC1 (stereo unspecified),-0.2,.,1.8,.,.
COc1cc(C)c(CN2CCN(C(C)C(=O)NC(C)c3ccccc3)CC2)cc1OC (stereo unspecified),0.2,.,1.2,.,.
COc1ccc2cc(-c3ccccc3)ncc2c1,2.4,.,7.0,.,.
CN1CCc2nc3sc(C(=O)C45CC6CC(CC(C6)C4)C5)c(N)c3cc2C1,.,.,1.5,-44.4,-31.2
Cc1cccc(NC(=O)c2cc(N3CCOCC3)nc3ccccc23)c1,-2.4,2.8%,-10.5,-43.8,1.0
COCc1ccc(C(=O)N(C)CC2CCCN(CCc3ccc(OC)cc3)C2)o1 (stereo unspecified),0.8,.,4.4,.,.
Cc1ccn(CCC(=O)Nc2ccc3c(c2)OCO3)n1,2.7,.,?,.,.
O=C(COc1ccc(Br)cc1)c1ccc2c(c1)CCCC2,0.4,5.7%,0.4,-30.6,0.0
O=C(Nc1ccccc1)N1CCN(c2ccc(F)cc2)CC1,1.8,-5.1%,0.7,9.2,-1.9
NC(=O)c1ccccc1NCC(=O)c1ccc(F)cc1,0.7,.,-2.2,.,.
CSc1ncccc1C(=O)OCC(=O)NC(=O)NCCC(C)C,1.5,-1.0%,10.0,3.5,9.6
Cc1cccc(Cn2c(C(=O)OC(C)C)cc3c2ccn3C)c1,15.1,14.3%,-2.4,-2.3,2.7

Remaining list, next part:
SMILES,RecA splice inh,Mtb growth,Mtb betalactam,YopH PTP inh,Arbovirus inh
COc1ccc(-c2cc(C(=O)Nc3ccccc3SC)no2)cc1,-0.3,-2.0%,0.3,10.6,0.4
Cc1sc2ncnc(SCC(=O)NC(C)(C)C)c2c1C,0.0,0.3%,6.7,.,0.1
COc1ccccc1-n1c(CNCC2CCCO2)nc2ccccc2c1=O (stereo unspecified),-3.5,-7.1%,0.4,-34.2,-0.5
COCCNC(=S)N1CCN(C/C=C/c2ccccc2)CC1,.,-3.4%,2.6,.,-0.6
CCOc1cc2c(cc1C=O)OC(C)C2 (stereo unspecified),1.6,1.3%,-5.0,.,0.8
COC(=O)c1cc(CNC(=O)c2ccc(N3CCCC3)c([N+](=O)[O-])c2)ccc1OC,0.7,.,-10.7,.,.
Cc1cc(OCc2cc3c(cc2Cl)OCO3)c2c(C)cc(=O)oc2c1,-7.1,5.5%,-6.7,-0.2,-23.0
CCC(C)(C)NC(=O)Cn1c(-c2ccc(C)cc2)noc1=O,0.8,1.6%,-8.0,.,.
COc1ccc(-n2c(O)c(C(C)=NCCCn3ccnc3)c(=O)[nH]c2=O)cc1,-1.7,-3.9%,2.1,-15.8,10.6
Cc1cc(=O)oc(C)c1C(=O)NCc1ccc(F)cc1,-1.0,-7.4%,0.8,-4.7,1.9
Cc1ccccc1C(=O)Nc1ccnn1C1CCN(Cc2cccnc2)CC1,0.6,.,-5.8,.,.
O=C(c1ccccc1F)N(Cc1ccccc1)C1CCS(=O)(=O)C1 (stereo unspecified),-0.7,-12.0%,14.4,-30.0,7.7
O=C(CCCC(=O)c1ccccc1)NCc1ccccc1,-6.3,.,-6.9,.,.
COC(=O)CSc1nnc(CNC(=O)c2ccc(OC)c(OC)c2)n1C,2.3,-2.1%,-7.3,.,8.9
